LANA-H2A inh: blocks KSHV LANA binding to histone H2A/H2B. AID 2629. cell-free LANA-H2A/H2B peptide, fluorescence polarization. 0.6% of 320,000 active. inhibition, % (test concentration not listed). Q9QR71; in the data active = inhibition mostly above about 10%, no sharp cut-off; inactive = mostly below about 6.7%;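 note: stock transfer was 7.5 nL into about 10 µL; 0% = median of vehicle wells and 100% = median of positive control wells; one replicate is shown; the record names a cut of 25% in any replicate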
ALR H2O2 inh: inhibitors of human sulfhydryl oxidase ALR; purified ALR, DTT oxidation, H2O2 HRP-luminol luminescence; inhibition, % (test concentration not listed); P55789; 3.8% of 290,000 active;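 active = mean and each replicate at 75% or more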;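 note: stock transfer was 7.5 nL into about 7.5 µL; 0% = neutral wells and 100% = wells with inactivated enzyme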
Target sequence (P55789 whole entry, looked up): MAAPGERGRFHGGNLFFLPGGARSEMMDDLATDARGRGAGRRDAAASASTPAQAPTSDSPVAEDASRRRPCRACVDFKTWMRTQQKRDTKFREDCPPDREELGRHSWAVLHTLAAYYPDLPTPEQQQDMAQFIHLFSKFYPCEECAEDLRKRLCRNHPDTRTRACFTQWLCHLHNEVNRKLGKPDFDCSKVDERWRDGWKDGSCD
E coli growth: E. coli growth inhibition; Escherichia coli growth, OD600, 23 h; hits give low values; OD600 absorbance (no concentration beside the values); 0.21% of 330,000 active;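 active = OD600 absorbance below the run mean of sample wells minus 3.6 SD, in any replicate, cut at about 0.56 in these data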;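 note: stock transfer was 300 nL into about 60 µL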
FGF22 binding: shifts melting point of recombinant human FGF22; Q9HCT0; recombinant FGF22 thermal shift, SYPRO orange fluorescence; percent of sucrose octasulfate shift, DMSO zero; calls only at 9.99 µM; 1.5% of 340,000 active;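 active = melting point raised past a set limit in the mean and every replicate; three in four hits are not shown here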
Target sequence (Q9HCT0 whole entry, looked up): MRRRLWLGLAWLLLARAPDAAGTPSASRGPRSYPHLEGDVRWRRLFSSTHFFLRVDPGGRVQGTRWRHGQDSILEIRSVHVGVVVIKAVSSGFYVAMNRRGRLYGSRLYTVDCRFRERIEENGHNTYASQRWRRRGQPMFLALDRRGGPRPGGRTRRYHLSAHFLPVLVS
HNF4A DNA FP: change in binding of human HNF4 alpha to DNA; P41235; HNF4a-FITC DNA binding, fluorescence polarization, 1 h; activity change, % at 10 µM; 0.3% of 360,000 active; AID 1224865; in the data active = activity change above about 30%, passing the limit was not always enough;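 note: controls were the assay level and a saturating level of protein; the project sought stronger binding though the title names inhibitors; some compounds called inactive have numbers as strong as hits; positive values seem to mean higher polarization but the record does not say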
Target sequence (P41235 whole entry, looked up): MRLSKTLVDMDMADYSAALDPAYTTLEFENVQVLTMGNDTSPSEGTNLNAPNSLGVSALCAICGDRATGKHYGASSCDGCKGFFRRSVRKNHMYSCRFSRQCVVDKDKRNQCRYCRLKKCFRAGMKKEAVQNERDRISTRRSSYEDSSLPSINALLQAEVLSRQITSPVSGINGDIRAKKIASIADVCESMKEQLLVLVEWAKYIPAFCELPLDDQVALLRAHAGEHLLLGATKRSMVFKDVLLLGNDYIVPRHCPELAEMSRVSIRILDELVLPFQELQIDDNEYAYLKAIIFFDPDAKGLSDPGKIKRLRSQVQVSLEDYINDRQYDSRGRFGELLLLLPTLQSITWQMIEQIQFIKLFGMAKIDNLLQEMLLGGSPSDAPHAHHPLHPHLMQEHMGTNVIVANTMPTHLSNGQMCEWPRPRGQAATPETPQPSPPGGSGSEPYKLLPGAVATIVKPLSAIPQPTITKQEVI
UCH37 inh: inhibitors of human deubiquitinating enzyme UCH37. Q9Y5K5. purified proteasome/UCH37, Ub-AMC cleavage fluorescence. inhibition, % (no concentration beside the values). 0.33% of 330,000 active;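 active = mean of two replicates above 20%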;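 note: 0% = compound-free wells with enzyme and 100% = wells lacking proteasome; stock transfer was 100 nL into about 20 µL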
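Material: human UCH37 enzyme supplied as purified proteasome complex. Measure: % inhibition of Ub-AMC cleavage fluorescence. Medium: pH 7.4 Tris-HCl (50 mM) with ovalbumin, ATP-MgCl2, DTT. Times: 30 min preincubation with enzyme, 25 min cleavage at room temperature. Detection: AMC fluorescence intensity at 355/460 nm.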
B2AR ag: activates human beta-2 adrenergic receptor causing internalization. response, % (test concentration not listed). 0.43% of 340,000 active. P07550. Am2.2-beta2AR cells, FAP receptor internalization, flow cytometry; reference of the scale not given here. AID 504454;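 active = response above a set limit, near 3 SD of response in nonfluorescent compounds, cut at about 42% in these data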;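 note: stock transfer was 100 nL into about 11 µL; a reference agonist was the positive control; negative values mostly stem from fluorescent compounds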
The depositor's hits bear a star; i = inactive; · = not tested or not shown. These rows are one share of the data, so the mix of outcomes need not match the whole.

SMILES | LANA-H2A inh | ALR H2O2 inh | E coli growth | FGF22 binding | HNF4A DNA FP | UCH37 inh | B2AR ag
OCCC1CN(C2CSCCSC2)CCN1Cc1ccccc1 (centres undefined) | 0.3 | 2.5 | 0.697 | i | 1.5 | -1.2 | -2.2
CC(C)c1ccc(/C=N/NC(=O)c2nnn(-c3nonc3N)c2CSC2=NCCS2)cc1 | -9.3 | -2.9 | · | · | -1.1 | · | 8.7
CCc1ccc(NC(=O)CCN2C(=O)c3cccnc3C2=O)cc1 | 1.9 | -2.4 | 0.737 | · | 1.5 | 1.1 | 1.0
O=C1N/C(=N\S(=O)(=O)Cc2ccccc2)S/C1=C/c1cc([N+](=O)[O-])ccc1O | 1.1 | 96.7* | 0.655 | i | 4.1 | 16.9 | -13.5
COc1cccc(C(=S)N2CCCC2)c1OC | 0.7 | -16.1 | 0.671 | i | -2.4 | 2.9 | -1.4
CC1CN(C(=O)CCC(=O)NCc2ccccc2Cl)c2ccccc2S1 (centres undefined) | 1.7 | -0.7 | 0.667 | i | -1.9 | 1.8 | -5.1
CCOC(=O)c1c(C)[nH]c(C)c1S(=O)(=O)N(C)CC(=O)NCc1cccc(C)c1 | -3.0 | -4.2 | 0.665 | i | 2.7 | 2.8 | -7.5
COc1ccc(S(=O)(=O)N(C)CC(=O)N2CCCC2)cc1 | -5.8 | -6.8 | 0.654 | i | 0.0 | 0.4 | 0.1
CC1(C)CC=C(NNC(=O)c2cccnc2)C(=O)C1 | 6.2 | 2.7 | 0.668 | i | -0.9 | 5.6 | 8.1
COC(=O)C1C2C=CC3(CN(C(C)c4ccc(OC)cc4)C(=O)C13)O2 (centres undefined) | -1.5 | -1.3 | 0.75 | · | -3.7 | 5.4 | 5.8
CCCC(=O)Nc1ccc(Br)c(Cl)c1 | 0.2 | -5.5 | 0.698 | · | -2.7 | 2.4 | -4.2
CCOc1ccc(C(=O)N(c2ccccn2)C2CCCCC2)cc1 | 0.2 | -7.3 | 0.693 | i | -4.5 | 0.6 | -2.1
CN1CCN(c2ccc(NC(=O)c3ccc(Br)o3)cc2)CC1 | 6.6 | 7.4 | 0.645 | i | -1.5 | 5.6 | -11.9
Cc1cccc(-n2ccnc2SCC(=O)c2c(N)n(C3CC3)c(=O)[nH]c2=O)c1C | 5.3 | -3.1 | 0.676 | i | 1.3 | 0.2 | -0.3
COc1cc(C2N3CC4(C)CN2CC(C)(C3)C4)ccc1O (centres undefined) | -3.7 | · | 0.664 | · | 2.0 | 5.7 | 1.7
O=S(=O)(c1ccc(Cl)cc1)c1nc(-c2ccccc2F)oc1NCCN1CCOCC1 | -3.7 | -4.3 | 0.694 | · | 1.0 | -2.9 | -10.0
COc1ccc(N2C(=O)N3[C@H](c4ccc(Br)cc4)[C@@H]4C(=O)N(C(C)(C)C)C(=O)[C@@H]4[C@]3(Cc3ccccc3)C2=O)cc1 | -3.7 | -1.6 | · | i | 2.5 | 1.0 | -6.4
CCOC(=O)c1cccc2c1-c1ccccc1/C2=N/O | 3.4 | -2.6 | · | · | -4.8 | · | 1.2
CC(C)C(=O)NCCc1nc(-c2ccc(Cl)cc2)no1 | 0.0 | -2.1 | 0.691 | i | 7.8 | 11.1 | -3.3
CC(=O)OCC1=C(C(=O)OC(C)(C)C)N2C(=O)[C@@H](NC(=O)Cc3ccccc3)[C@H]2SC1 | · | · | 0.723 | i | -3.4 | 3.0 | 2.2
C/C(CC(=O)NC(C)(C)C)=N\NC(=O)c1ccccc1N | -3.8 | 4.8 | · | i | 3.0 | · | -4.2
O=C(CN(Cc1ccc(Cl)cc1)C(=O)c1csnn1)NCc1ccc(F)cc1 | 1.0 | -4.6 | 0.706 | i | -2.1 | 4.0 | -12.3
O=C(O)c1cccc(S(=O)(=O)Nc2cccc3ccccc23)c1 | 5.8 | 0.1 | 0.69 | i | -3.0 | 3.1 | -1.8
O=C(O)c1nn(Cc2csc(-c3ccccc3)n2)c(=O)c2ccccc12 | 1.6 | -3.5 | 0.644 | i | -2.0 | 1.6 | 4.4
CCn1c(CN2CCN(c3cccc(C)c3C)CC2)n[nH]c1=S | 3.0 | 9.5 | 0.68 | i | 11.9 | 0.6 | -11.5

Just HNF4A DNA FP (two entries from above):
structure	HNF4A DNA FP
CC(=O)OCC1=C(C(=O)OC(C)(C)C)N2C(=O)[C@@H](NC(=O)Cc3ccccc3)[C@H]2SC1	-3.4
O=C(O)c1cccc(S(=O)(=O)Nc2cccc3ccccc23)c1	-3.0

Exported comma-delimited: 3 of the compounds above.
SMILES,LANA-H2A inh,ALR H2O2 inh,E coli growth,FGF22 binding,HNF4A DNA FP,UCH37 inh,B2AR ag
CCCC(=O)Nc1ccc(Br)c(Cl)c1,0.2,-5.5,0.698,·,-2.7,2.4,-4.2
CCOc1ccc(C(=O)N(c2ccccn2)C2CCCCC2)cc1,0.2,-7.3,0.693,i,-4.5,0.6,-2.1
CN1CCN(c2ccc(NC(=O)c3ccc(Br)o3)cc2)CC1,6.6,7.4,0.645,i,-1.5,5.6,-11.9

Additional entries.
SMILES | LANA-H2A inh | ALR H2O2 inh | E coli growth | FGF22 binding | HNF4A DNA FP | UCH37 inh | B2AR ag
C1=C(C(c2nnnn2C2CCCCC2)N2CCCCC2)COc2ccccc21 (centres undefined) | -5.6 | 10.8 | 0.696 | · | -0.9 | 3.9 | 8.6
CCOc1ccc(CCNC(=O)COc2cc(=O)n(C)c3ccccc23)cc1OCC | 1.6 | -6.5 | 0.68 | i | -2.3 | 2.8 | -0.6
CC(=O)N1CCN(c2ccc(NC(=O)c3ccc([N+](=O)[O-])cc3Cl)cc2)CC1 | 5.1 | -1.1 | 0.658 | i | -3.2 | 0.9 | 1.7
CC(C)CN(C(=O)C(C)N1C(=O)c2ccccc2C1=O)c1c(N)n(Cc2ccccc2)c(=O)[nH]c1=O (centres undefined) | -6.5 | -3.6 | 0.659 | i | -0.7 | 0.7 | -2.9
CCc1ccc(C(C)NC(=O)c2ccc3c(c2)OCO3)cc1 (centres undefined) | -1.0 | -11.5 | 0.721 | i | -2.8 | 3.5 | -2.3
CCN1/C(=C(\O)c2ccccc2)C(=O)c2ccccc2S1(=O)=O | 0.2 | -0.5 | 0.735 | · | -0.9 | 6.8 | 14.6
Cc1c(NC(=O)C(C)N2C(=O)C3C4C=CC(C4)C3C2=O)c(=O)n(-c2ccccc2)n1C (centres undefined) | -2.5 | 3.3 | 0.758 | i | 0.6 | 6.3 | 4.0
COC(=O)C1=C(C)N(CC(C)C)C(=O)/C1=C\c1cccs1 | -1.4 | 9.5 | · | · | 1.6 | 1.9 | -10.5
CC1=C(C#N)CCC(=O)N1Cc1c(C)cc(C)cc1C | -3.9 | 5.9 | 0.763 | · | 0.0 | 2.0 | 2.4
CN=C(Nc1ccc(C(=O)OC)s1)c1ccc(Cl)cc1 | -1.8 | 12.2 | 0.655 | i | -2.5 | 3.9 | -0.5
COc1ccccc1C(=O)Nc1ccnn1C1CCN(Cc2ccc3nonc3c2)CC1 | -0.9 | -1.1 | 0.653 | i | -1.3 | 1.6 | 0.8
O=C1C2C3C=CC(O3)C2C(=O)N1CC(O)c1ccccc1 (centres undefined) | -0.6 | -4.9 | 0.715 | · | -0.2 | -2.3 | 5.8
COc1ccc(CC(=O)O/N=C(\N)c2ccccn2)cc1 | 2.6 | 5.5 | 0.631 | i | -4.0 | 4.2 | -0.4
COc1ccccc1C1=CC(=O)CC(C)(C)C1=O | 2.4 | -9.2 | 0.617 | i | -2.1 | 7.1 | 7.0
CCN1/C(=C/C=C/c2oc3ccc(-c4ccccc4)cc3[n+]2CC)Oc2ccc(-c3ccccc3)cc21 | -61.0 | -9.8 | 0.742 | i | -97.8 | 35.0* | ·
COc1cc(C(NC(C)=O)NC(C)=O)ccc1OCc1ccccc1 | -5.5 | 11.9 | 0.705 | i | 3.5 | -2.4 | -1.1
O=c1c2c(nc(NCCO)n1CC1CCCCC1)-c1ccccc1CC21CCCC1 | 0.6 | -0.8 | 0.724 | · | 1.4 | -200.0 | 0.8
COc1ccc(-c2sc3ccc(OC)cc3c2-c2ccc(OC)c(F)c2)cc1 | -0.3 | -22.7 | 0.73 | i | 1.4 | 2.6 | 3.9
Cn1c(=O)oc2cc(S(=O)(=O)N3CCc4ccccc4C3)ccc21 | -5.5 | -12.7 | 0.783 | · | -3.6 | 2.3 | -3.8
COCCNC(=O)c1ccc2c(Cl)c3c(nc2c1)CCC3 | -1.6 | -1.1 | 0.633 | i | -5.1 | 3.9 | 0.9
Cc1ccc(SCc2nc3ccccc3[nH]2)cc1 | -4.8 | -5.8 | 0.653 | · | 1.1 | 0.1 | -0.9
O=C(NC(=S)N1CCCC1)c1ccccc1Cl | -2.0 | 3.9 | 0.681 | i | 4.7 | -1.2 | 2.0
O=C(COC(=O)c1ccc(S(=O)(=O)NCc2ccco2)cc1)NCC1CCCCC1 | 2.4 | -0.4 | 0.669 | · | -2.3 | 4.9 | 8.9
COc1ccc(OC)c(CNC(=O)CCNC(=O)Cn2ccc3ccccc3c2=O)c1 | 3.5 | -5.9 | 0.693 | · | 3.3 | -0.3 | 4.6
COCCCNC(=O)C(Cc1ccccc1)NS(=O)(=O)c1ccc2c(c1)c(=O)n(C)c(=O)n2C (centres undefined) | 0.5 | -13.9 | 0.651 | · | -2.0 | 3.8 | -5.1

Next section.
SMILES | LANA-H2A inh | ALR H2O2 inh | E coli growth | FGF22 binding | HNF4A DNA FP | UCH37 inh | B2AR ag
O=C(NCc1ccc(OC(F)(F)F)cc1)C1CC(c2ccc(C(F)(F)F)cc2)=NO1 (centres undefined) | -1.3 | -22.6 | 0.712 | i | -2.1 | -1.8 | -5.0
O=[N+]([O-])c1ccc(N2CCCCC2)cc1 | -6.1 | -4.9 | 0.656 | i | 1.2 | 6.7 | 5.2
COc1cc(NC(=O)C2CC(c3c(F)cccc3Cl)=NO2)c(OC)cc1Cl (centres undefined) | 6.4 | 60.0 | 0.669 | i | 3.7 | 4.7 | -2.6
O=C(Nc1ccccc1)C1CC2CCC1C2 (centres undefined) | -0.4 | -2.4 | 0.649 | i | 3.5 | 4.0 | -4.0
COC1=CC(=O)CC(C)C12Oc1cc(OC)cc(OC)c1C2=O (centres undefined) | -3.5 | -39.2 | 0.659 | i | 1.4 | -2.6 | -10.0
COC(=O)c1ccc(NS(=O)(=O)c2ccc(Cl)cc2)o1 | -0.6 | 14.8 | 0.666 | i | 2.2 | 6.3 | 0.2
COc1ccc(S(=O)(=O)NCc2cccnc2)cc1OC | 2.8 | -5.1 | 0.682 | i | 46.1* | 0.6 | -13.9
Cc1nc2cc(NC(=O)c3ccc(Br)s3)ccc2s1 | 5.3 | -2.2 | 0.718 | i | 7.6 | -27.6 | 18.8
Cc1cc(C)c(CN2CCC(CO)(CCOc3ccccc3)CC2)cc1C | 2.9 | -7.0 | 0.689 | i | -6.5 | 3.4 | 30.9
COCCNCC(=O)NC12CC3CC(CC(C3)C1)C2 | -3.1 | 1.6 | 0.734 | · | -3.8 | 1.0 | -4.5
COc1ccc(S(=O)(=O)NNC(=O)C23CC4CC(CC(C4)C2)C3)cc1[N+](=O)[O-] | 1.2 | 9.6 | 0.681 | i | -2.0 | 1.3 | -5.1
CN1C(=O)C(=O)/C(=C(/O)c2ccccc2)C1c1ccccc1 (centres undefined) | -6.0 | 1.5 | 0.647 | i | -3.2 | 9.5 | 15.0
CCCn1c(SCC(=O)NC2CCCCC2)nnc1-c1ccccn1 | -5.3 | · | 0.661 | i | 1.1 | -1.4 | -6.2
CCN(CC(=O)Nc1ccc2c(c1)CCC2)Cc1nc2ccccc2c(=O)[nH]1 | -1.1 | · | 0.676 | · | 2.2 | 0.2 | 0.1
COC(=O)c1sc(N)c(C(=O)OC)c1COC(=O)C1CC(=O)N(Cc2ccco2)C1 (centres undefined) | -3.2 | -5.4 | 0.714 | · | 3.4 | 2.8 | 12.6
